FGF22 binding – shifts melting point of recombinant human FGF22; calls only at 9.99 µM; Q9HCT0; recombinant FGF22 thermal shift, SYPRO orange fluorescence; percent of sucrose octasulfate shift, DMSO zero; 340,000 tested, 1.5% active;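 active = melting point raised past a set limit in the mean and every replicate; three in four hits are not shown here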
Target sequence (Q9HCT0 whole entry, looked up): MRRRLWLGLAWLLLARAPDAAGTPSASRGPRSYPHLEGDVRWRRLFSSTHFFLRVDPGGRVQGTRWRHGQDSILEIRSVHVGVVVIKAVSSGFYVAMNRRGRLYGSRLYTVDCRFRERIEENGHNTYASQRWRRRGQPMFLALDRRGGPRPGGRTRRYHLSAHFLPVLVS
rRNA inh HTS – selective bacterial rRNA inhibition in E. coli; E. coli WT GFP vs humanized-ribosome RFP mutants, fluorescence, 24 h; active compounds read low; DMSO median 0, no signal -100; GFP signal change (wild-type ribosome), % (test concentration not listed); 350,000 tested, 1.6% active;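 active = significant combined selectivity score with lowered wild-type GFP, culture density cut under 30%, mutant RFP and density less affected; inactive = any of these conditions unmet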; note: one replicate is shown; some compounds called inactive have numbers as strong as hits
rRNA inh HTS OD600 – also measured in rRNA inh HTS; calls as there; OD600 change, %; measured here: OD600 growth;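 optical density of the mix in the first replicate; 0 = DMSO median and -100 = no signal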
rRNA inh HTS RFP – further read-out of rRNA inh HTS, marked with its call; RFP signal change, %; measured here: RFP humanized mutant strains;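 first replicate; 0 = DMSO median and -100 = no signal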
* hit, by the source's call; i = inactive; & = joins results of further samples. An excerpt. The share of hits here may be higher or lower than overall.

(1) COc1ccc(NC(=O)Nc2cccc3c2O[C@@H](CN(C)Cc2ccc(C(=O)O)cc2)[C@H](C)CN([C@@H](C)CO)C3=O)cc1
(2) CCCNC(=O)C[C@H]1C[C@@H]2c3cc(NC(=O)c4ccc5c(c4)OCO5)ccc3O[C@@H]2[C@@H](CO)O1
(3) COc1cccc(C(=O)Nc2ccc3c(c2)C(=O)N(C)C[C@H](OC)[C@@H](C)CN(CCc2ccccc2)[C@@H](C)CO3)c1
(4) C[C@H](NC(=O)C[C@H]1C=C[C@@H](NC(=O)C2CCC2)[C@H](CO)O1)c1ccccc1
(5) CO[C@@H]1CN(C)C(=O)c2ccc(NC(C)=O)cc2OC[C@@H](C)N(S(=O)(=O)c2cn(C)cn2)C[C@H]1C
(6) O=C(C[C@H]1CC[C@H]2[C@@H](COC[C@@H](O)CN2S(=O)(=O)c2cccc(F)c2)O1)Nc1ccccc1
compound no.,1,2,3,4,5,6
FGF22 binding,i,i,i,i,i,i
rRNA inh HTS,-1,-1,-4,0,0,-4
rRNA inh HTS OD600,6,-2,-4,-2,-3,-3
rRNA inh HTS RFP,-1.2,-0.3,6.2,-1.3,-1.3,-3.7

(7) Oc1ccccc1
(8) COc1ccc(-c2cnc3c(c2)C(=O)N([C@H](C)CO)C[C@H](C)[C@H](CN(C)C(=O)NC2CCCCC2)O3)cc1
(9) CCCC(=O)N1CCC2(CC1)CN(S(C)(=O)=O)[C@@H](CO)c1c2c2ccc(OC)cc2n1C
(10) C[C@@H]1CN([C@H](C)CO)C(=O)Cc2cc(NC(=O)CCC(F)(F)F)ccc2O[C@H]1CN(C)Cc1ccc(Cl)c(Cl)c1
(11) COc1ccc(NC(=O)Nc2ccc3c(c2)[C@H]2C[C@H](CC(=O)O)O[C@H](CO)[C@H]2O3)cc1
(12) COc1cccc(-c2ccc3c(c2)O[C@@H](CN(C)C(=O)C2CCOCC2)[C@@H](C)CN([C@H](C)CO)S3(=O)=O)c1
compound no.,7,8,9,10,11,12
FGF22 binding,i,i,i,i,i,i
rRNA inh HTS,3,-4,-3,-2,7,-5
rRNA inh HTS OD600,9,1,-1,-7,8,-11
rRNA inh HTS RFP,1.4,0.1,3.7,3.4,-3.0,-2.6

(13) N#C[C@@H]1[C@@H](c2ccc(C3=CCCC3)cc2)[C@H](CO)N1C(=O)C1CCC1
(14) Cc1ccc(S(=O)(=O)N[C@H]2CC[C@H](CCNC(=O)Nc3ccc(Cl)cc3)O[C@H]2CO)cc1
(15) C[C@H]1CN([C@@H](C)CO)C(=O)c2cccc(NS(=O)(=O)c3cn(C)cn3)c2O[C@H]1CN(C)C(=O)Nc1ccccc1
(16) O=C(C[C@H]1C[C@@H]2c3cc(NC(=O)c4ccc5c(c4)OCO5)ccc3O[C@@H]2[C@H](CO)O1)NCC(F)(F)F
(17) C[C@H]1CCCCO[C@H](CN(C)C(=O)CCCN(C)C)[C@@H](C)CN([C@@H](C)CO)C(=O)c2cc(NS(=O)(=O)c3ccc(Cl)cc3)ccc2O1
(18) COc1ccc(CN2C[C@@H](O)COC[C@@H]3O[C@H](CC(=O)NCc4ccncn4)CC[C@H]32)cc1
compound no.,13,14,15,16,17,18
FGF22 binding,i,i,i,i,i,i
rRNA inh HTS,9,-27,6,1,0,2
rRNA inh HTS OD600,3,-57,4,8,4,1
rRNA inh HTS RFP,-0.2,36,-1.2,-2.3,0.2,-0.7

(19) C[C@H]1CN([C@@H](C)CO)C(=O)c2cc(NC(=O)Cc3cn(C)c4ccccc34)ccc2O[C@@H]1CN(C)S(=O)(=O)c1ccc(F)cc1
(20) Cc1noc(C)c1S(=O)(=O)Nc1ccc2c(c1)CC(=O)N([C@H](C)CO)C[C@@H](C)[C@H](CN(C)Cc1ccc(Cl)c(Cl)c1)O2
(21) C[C@@H]1CCCCO[C@H](CN(C)S(=O)(=O)c2cn(C)cn2)[C@H](C)CN([C@@H](C)CO)C(=O)c2cc(NC(=O)Nc3cccc4ccccc34)ccc2O1
(22) CO[C@@H]1CN(C)C(=O)c2cc(NC(=O)C3CC3)ccc2OC[C@H](C)N(C(=O)c2ccccc2)C[C@H]1C
(23) CC(=NNC(N)=O)c1ccc(Cl)c(-n2cccc2)c1
(24) COc1cccc(S(=O)(=O)Nc2ccc3c(c2)OC[C@@H](C)N(Cc2ccccc2F)C[C@H](C)[C@H](OC)CN(C)C3=O)c1
compound no.,19,20,21,22,23,24
FGF22 binding,i,i,i,i,i,i
rRNA inh HTS,-2,0,-2,0,-6,-6
rRNA inh HTS OD600,-2,0,-3,8,-36,-3
rRNA inh HTS RFP,-0.1,1.3,1.2,-1.7,-9.1,6.1

(25) O=C(C[C@H]1CC[C@H](NC(=O)C2CCC2)[C@H](CO)O1)NCC1CC1
(26) Cc1noc(C)c1NC(=O)N(C)C[C@H]1Oc2ncc(C#CC3CC3)cc2C(=O)N([C@H](C)CO)C[C@@H]1C
(27) CN(C)C(=O)C[C@@H]1C[C@H]2c3cc(NC(=O)C4CCOCC4)ccc3O[C@H]2[C@H](CO)O1
(28) C[C@@H]1CN([C@H](C)CO)S(=O)(=O)c2ccc(-c3ccc(F)cc3)cc2O[C@H]1CN(C)S(C)(=O)=O
(29) Cc1noc(C)c1S(=O)(=O)Nc1ccc2c(c1)C(=O)N([C@@H](C)CO)C[C@H](C)[C@@H](CN(C)C(=O)c1ccncc1)OCCCC[C@H](C)O2
(30) COc1ccc(S(=O)(=O)N(C)C[C@H]2Oc3ccc(NC(=O)Nc4ccc5c(c4)OCO5)cc3CC(=O)N([C@@H](C)CO)C[C@H]2C)cc1
compound no.,25,26,27,28,29,30
FGF22 binding,i,i,i,i,i,i
rRNA inh HTS,1,8,1,-3,-3,-1
rRNA inh HTS OD600,1,-1,-3,-23,-2,-4
rRNA inh HTS RFP,-0.5,-0.9,1.2,2.5,-1.7,4.2

(31) COc1ccc(CN(C)C[C@@H]2Oc3ccc(NC(=O)Nc4ccc(F)cc4)cc3CC(=O)N([C@H](C)CO)C[C@@H]2C)cc1
(32) CO[C@H](CN(C)C(=O)C1CCOCC1)[C@@H](C)CN([C@H](C)CO)S(=O)(=O)c1ccccc1
(33) CO[C@H](CN(C)C(=O)c1cnccn1)[C@H](C)CN([C@H](C)CO)S(=O)(=O)c1ccc(F)cc1
(34) C/C=C/c1ccc(C2[C@@H]3CN(C(=O)Nc4ccc(C(F)(F)F)cc4)C[C@H]2N3)cc1 (stereo partly drawn)
(35) C[C@@H]1CN([C@@H](C)CO)C(=O)c2cc(NC(=O)Nc3ccccc3)ccc2O[C@@H]1CN(C)C(=O)Nc1ccc(C(F)(F)F)cc1
(36) CCC(=O)N(C)C[C@@H]1Oc2ncc(C#C[C@H](C)O)cc2C(=O)N([C@H](C)CO)C[C@@H]1C
compound no.,31,32,33,34,35,36
FGF22 binding,i,i,i,i,i,i
rRNA inh HTS,-16,8,3,-57&-56,-15,2
rRNA inh HTS OD600,-54,11,1,-77&-77,-14,1
rRNA inh HTS RFP,14,1.9,1.3,-15&-17,0.0,-2.5

(37) O=C(C[C@@H]1C[C@@H]2c3cc(NC(=O)Nc4ccc(F)cc4)ccc3O[C@@H]2[C@H](CO)O1)NCC(F)(F)F
(38) CC(C)C#Cc1cnc2c(c1)C(=O)N([C@H](C)CO)C[C@@H](C)[C@H](CN(C)C(=O)C1CCC1)O2
(39) Cc1noc(C)c1NC(=O)Nc1ccc2c(c1)CC(=O)N([C@@H](C)CO)C[C@@H](C)[C@@H](CN(C)Cc1ccc(-c3ccccc3)cc1)O2
(40) COc1ccc(S(=O)(=O)N2CC3(CN(Cc4ccccc4OC)[C@@H](CO)c4[nH]c5cc(OC)ccc5c43)C2)cc1
(41) CO[C@H]1CN(C)C(=O)c2ccc(NC(=O)C3CC3)cc2OC[C@H](C)N(Cc2nccs2)C[C@H]1C
(42) C[C@H]1CCCCO[C@@H](CN(C)C(=O)C2CCCCC2)[C@@H](C)CN([C@@H](C)CO)C(=O)c2cc(NC(=O)c3ccccc3)ccc2O1
compound no.,37,38,39,40,41,42
FGF22 binding,i,i,i,i,i,i
rRNA inh HTS,2,2,-2,-4,-3,-4
rRNA inh HTS OD600,17,4,-32,-15,5,0
rRNA inh HTS RFP,-0.8,-3.0,5.1,4.6,0.1,3.4

(43) COc1cccc(CNC(=O)[C@H]2[C@H](CO)[C@H]3Cn4c(cccc4=O)[C@@H]2N3C(=O)C2CCCC2)c1
(44) O=C(C[C@@H]1C[C@@H]2c3cc(NC(=O)c4cccnc4)ccc3O[C@@H]2[C@@H](CO)O1)NCc1cc(F)ccc1F
(45) Cc1noc(C)c1NC(=O)Nc1ccc2c(c1)C(=O)N([C@@H](C)CO)C[C@@H](C)[C@H](CN(C)C(=O)Nc1ccc(F)cc1)OCCCC[C@@H](C)O2
(46) COc1ccc(C(=O)N2C[C@@H]3[C@H](c4ccccc42)[C@@H](CO)N3C(=O)c2cccc(F)c2)cc1
(47) COc1cccc(NC(=O)N[C@H]2CC[C@H](CC(=O)N3CCCCC3)O[C@H]2CO)c1
(48) O=C(C[C@H]1CC[C@H]2[C@@H](COC[C@H](O)CN2C(=O)Nc2ccccc2)O1)NCc1ccncn1
compound no.,43,44,45,46,47,48
FGF22 binding,i,i,i,i,i,i
rRNA inh HTS,2,-6,-1,-2,5,-1
rRNA inh HTS OD600,11,-15,-1,-5,0,17
rRNA inh HTS RFP,-1.4,1.2,0.2,-1.6,-0.7,-1.6

(49) C[C@@H]1CN([C@@H](C)CO)C(=O)c2cc(NC(=O)c3ccncc3)ccc2O[C@@H](C)CCCCO[C@@H]1CN(C)Cc1ccc(C(F)(F)F)cc1
(50) C[C@@H]1CN([C@H](C)CO)C(=O)c2cc(C#Cc3ccccc3F)cnc2O[C@@H]1CN(C)C(=O)C1CCOCC1
(51) CCNC(=O)C[C@H]1CC[C@@H](NC(=O)C2CCC2)[C@@H](CO)O1
(52) Cc1noc(C)c1NC(=O)N1C[C@@H](O)COC[C@@H]2O[C@@H](CC(=O)NCC3CCCCC3)CC[C@H]21
(53) COCC(=O)N(C)C[C@@H]1Oc2ncc(C#CCC3CCCC3)cc2C(=O)N([C@H](C)CO)C[C@H]1C
(54) CCCNC(=O)Nc1ccc2c(c1)C(=O)N(C)[C@@H]1CC[C@H](CC(=O)NC)O[C@H]1CO2
compound no.,49,50,51,52,53,54
FGF22 binding,i,i,i,i,i,i
rRNA inh HTS,2,3,0,1,1,3
rRNA inh HTS OD600,-12,2,-13,12,-3,3
rRNA inh HTS RFP,4.1,-1.6,-0.4,-3.8,3.8,-2.5

(55) CCCN1[C@H](C(=O)NCCCN(C)C)[C@@H](CO)[C@@H]2Cn3c(ccc(C4=CCCCC4)c3=O)[C@@H]21
(56) O=C(c1ccccc1F)N1C[C@H]2[C@@H](c3ccccc31)[C@H](CO)N2C(=O)c1ccncc1
(57) CCCN(C)C[C@@H]1Oc2ncc(-c3cccnc3)cc2C(=O)N([C@H](C)CO)C[C@H]1C
(58) C[C@@H]1CCCCO[C@@H](CN(C)C(=O)C2CCCCC2)[C@@H](C)CN([C@H](C)CO)C(=O)c2cc(NS(C)(=O)=O)ccc2O1
(59) COc1ccccc1-c1cnc2c(c1)C(=O)N([C@H](C)CO)C[C@@H](C)[C@H](CN(C)CC1CCOCC1)O2
(60) C[C@@H]1CCCCO[C@H](CN(C)S(=O)(=O)c2ccc(F)cc2)[C@@H](C)CN([C@@H](C)CO)C(=O)c2cc(NC(=O)Nc3ccc4c(c3)OCO4)ccc2O1
compound no.,55,56,57,58,59,60
FGF22 binding,i,i,i,i,i,i
rRNA inh HTS,3,0,-1,0,5,4
rRNA inh HTS OD600,8,2,14,6,9,6
rRNA inh HTS RFP,-0.7,-2.1,-1.8,-0.5,-1.9,-1.3

(61) CC(C)C#Cc1cnc2c(c1)C(=O)N([C@H](C)CO)C[C@@H](C)[C@@H](CN(C)Cc1ccccc1F)O2
(62) C[C@H](CO)N1C[C@H](C)[C@H](CN(C)C(=O)Nc2ccccc2)OCCCC[C@H](C)Oc2ccc(NS(C)(=O)=O)cc2C1=O
(63) C[C@H]1CN([C@@H](C)CO)C(=O)c2cccc(NC(=O)c3nc4ccccc4s3)c2O[C@@H]1CN(C)S(C)(=O)=O
(64) C[C@@H]1CN([C@H](C)CO)C(=O)c2cc(NC(=O)Nc3cccc4ccccc34)ccc2O[C@@H](C)CCCCO[C@H]1CN(C)Cc1ccccc1
(65) O=C(NCCCN1CCOCC1)[C@H]1N[C@H]2c3ccc(C4=CCCC4)c(=O)n3C[C@H]2[C@@H]1CO
(66) COc1ccc2c3c([nH]c2c1)[C@@H](CO)N(C(=O)Nc1cccc(F)c1)CC31CCN(CC2CC2)CC1
(67) C[C@@H]1CN([C@@H](C)CO)C(=O)c2cc(NC(=O)c3ccccc3)ccc2O[C@@H](C)CCCCO[C@@H]1CN(C)C(=O)CCC(F)(F)F
compound no.,61,62,63,64,65,66,67
FGF22 binding,i,i,i,i,i,i,i
rRNA inh HTS,-4,-2,-3,-27,3,-1,1
rRNA inh HTS OD600,-10,5,5,-36,4,1,-4
rRNA inh HTS RFP,0.8,-3.5,2.8,8.1,-3.4,0.8,1.3
